# VDR inh: vitamin D3 receptor (human) inhibition; P11473; Potency, µM, inactives show max response, negative = inhibition, hits mostly inhibitors; actives 0.93% (n = 400,000); VDR-SRC2-3 peptide fluorescence polarization, 2 h; active = well fitted inhibition curve with a large enough effect; inconclusive = small, poorly fitted or top-dose-only effect, or another doubt; inactive = no such curve, though single readings can be large or run the other way; also: series mostly up to about 120 µM
# Target sequence (P11473 whole entry, looked up): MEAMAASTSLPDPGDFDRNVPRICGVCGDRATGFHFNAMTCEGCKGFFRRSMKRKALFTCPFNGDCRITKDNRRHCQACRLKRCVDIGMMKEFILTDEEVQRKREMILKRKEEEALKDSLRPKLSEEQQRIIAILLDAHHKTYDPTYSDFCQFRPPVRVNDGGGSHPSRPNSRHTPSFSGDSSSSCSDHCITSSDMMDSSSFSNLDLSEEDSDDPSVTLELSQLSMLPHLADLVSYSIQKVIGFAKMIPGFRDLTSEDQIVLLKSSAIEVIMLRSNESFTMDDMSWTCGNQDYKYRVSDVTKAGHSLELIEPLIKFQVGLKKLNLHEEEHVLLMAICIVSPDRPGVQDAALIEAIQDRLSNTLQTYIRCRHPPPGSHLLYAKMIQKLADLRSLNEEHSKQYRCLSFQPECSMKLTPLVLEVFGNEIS
#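 After 23 nl compound addition and a short centrifugation, plates sat for 2 hours at ambient temperature; polarization of fluorescence then indicated loss of VDR binding to peptide SRC2-3.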
# The depositor's hits bear a star; ? = inconclusive. % is scaled to controls: 0 for no effect and ±100 for the full control effect; potency is read from the fitted curve at half-maximal effect. Not all compounds are listed. The share of hits here may be higher or lower than overall.
SMILES,VDR inh
Cc1cc(C)cc(-c2cc3c(c(-c4c(O)c(-c5cc(C)cc(C)c5)cc5c4CCCC5)c2O)CCCC3)c1,9.5%
Cc1n[nH]c(C)c1C(=O)CC1(O)C(=O)N(CCc2ccccc2)c2ccc(Br)cc21 (stereo unspecified),-2.8%
COc1ccc(C(=O)N2CCC(C(=O)Nc3ccc(OC)cc3OC)CC2)cc1,1.8%
CCN(CC)C(=O)COc1ccc(/C(C)=N/NC(=O)c2ccccc2Br)cc1,20.7%
Cc1cccc2sc(NNC(=O)c3ccc(S(=O)(=O)N4CCCC(C)C4)cc3)nc12 (stereo unspecified),2.1%
O=C(CCN1CCCCC1c1cccnc1)NCc1ccccc1 (stereo unspecified),-2.9%
COc1ccc(CCNC(=O)c2c(O)c3ccccc3n(C)c2=O)cc1,12.5%
Cc1ccccc1NC(=O)Cc1nnc(SCC(=O)NC2=NCCS2)n1C,-5.0%
COc1ccc(C2N=C(c3ccccc3)NO2)cc1OC (stereo unspecified),-0.3%
COc1ccc(C(=O)N2CCN(CCc3ccccc3)CC2)cc1[N+](=O)[O-],7.3%
C=CCN1C(c2cccc(C(F)(F)F)c2)=CS/C1=C(/C#N)c1nnc(N2CCOCC2)n1-c1ccccc1,-27.9%
CC1(C)C(c2ccccn2)=[N+]([O-])C(C)(C)N1O,5.9%
Cc1ccc(N(CC(=O)NCCSc2ccccc2)S(=O)(=O)c2ccc(F)cc2)cc1,-1.4%
CCn1c2ccccc2c2cc(/C=N/NC(=O)c3ccccc3)ccc21,-14.0%
CN(C)C(=O)c1cnc(-c2ccccc2)nc1-c1ccccc1,-10.9%
COc1ccc(-n2c(C)nc3cc(C(=O)O)ccc32)cc1,9.0%
CC(=O)c1ccc(NC(=O)Cn2c3ccccc3c3nc(=O)cc(C)n32)cc1,-10.3%
COCCCN(CC(=O)Nc1ccc(F)cc1)S(=O)(=O)c1cccs1,-9.4%
CCCCn1c(N)c(N(CCOC)C(=O)CSc2nnc(C)n2-c2ccc(OC)cc2)c(=O)[nH]c1=O,2.3%
CCOC(=O)c1ccccc1NC(=O)c1ccc2nccnc2c1,-10.7%
COc1cc(/C=C2/SC(=O)N(Cc3ccccc3Cl)C2=O)ccc1OCc1ccncc1,89.1µM*
C(=N\N=C\c1ccncc1)/c1ccncc1,-4.0%
NC(CO)c1cn([C@@H](CCC(=O)O)C(=O)N2CCNCC2)nn1 (stereo partly specified),2.6%
CCCNC(=O)c1cc(S(=O)(=O)N2CCCCC2)c[nH]1,6.6%

# In the list so far, these contain sulfur:
SMILES,VDR inh
Cc1cccc2sc(NNC(=O)c3ccc(S(=O)(=O)N4CCCC(C)C4)cc3)nc12 (stereo unspecified),2.1%
Cc1ccccc1NC(=O)Cc1nnc(SCC(=O)NC2=NCCS2)n1C,-5.0%
C=CCN1C(c2cccc(C(F)(F)F)c2)=CS/C1=C(/C#N)c1nnc(N2CCOCC2)n1-c1ccccc1,-27.9%
Cc1ccc(N(CC(=O)NCCSc2ccccc2)S(=O)(=O)c2ccc(F)cc2)cc1,-1.4%
COCCCN(CC(=O)Nc1ccc(F)cc1)S(=O)(=O)c1cccs1,-9.4%
CCCCn1c(N)c(N(CCOC)C(=O)CSc2nnc(C)n2-c2ccc(OC)cc2)c(=O)[nH]c1=O,2.3%
COc1cc(/C=C2/SC(=O)N(Cc3ccccc3Cl)C2=O)ccc1OCc1ccncc1,89.1µM*
CCCNC(=O)c1cc(S(=O)(=O)N2CCCCC2)c[nH]1,6.6%

# (list continues)
SMILES,VDR inh
COc1ccc(C(=O)NNC(=O)CNC(=O)C2CCCCC2)cc1,2.7%
COc1cccc(/C=N/Nc2ccc(Cl)nn2)c1,-7.4%
COc1cc(C(=O)N/C(=C\c2cn(C)c3ccccc23)C(=O)NCCCn2ccnc2)cc(OC)c1OC,-18.1%
CCCc1cc(=O)[nH]c(SCC(=O)Nc2cc3c(cc2C(C)=O)OCO3)n1,8.2%
O=C(CSc1nnc(SCc2ccccc2)s1)NNC(=S)Nc1ccccc1,?
NC1=NC[C@H](c2ccccc2)N1CCc1cccc(F)c1,-2.4%
CN1CCN(c2ccc(CNS(=O)(=O)c3ccc(F)cc3Cl)cc2)CC1,11.4%
Cc1cc(C(=O)N2CCN(C(=O)c3ccco3)CC2)ccc1[N+](=O)[O-],-10.5%
Cc1nn(CC(=O)NCCc2ccc(Cl)cc2)c(C)c1[N+](=O)[O-],-10.1%
CCOc1ccccc1-c1n[nH]c(=S)o1,-4.4%
CCN(CC)C(=O)CN(c1cccc([N+](=O)[O-])c1)S(=O)(=O)c1ccccc1,-5.5%
COc1ccccc1OCC(=O)NCCCn1ccnc1,-17.2%
Cc1ccc(C(=O)N2CCN(S(=O)(=O)N3CCOCC3)CC2)cc1,-2.3%
CCCn1c2ccccc2c2cnn(CC(=O)NCCc3ccc(OC)cc3OC)c(=O)c21,8.8%
CCn1c(C)nnc1SCC(=O)NC1CCCC1,16.1%
CCc1nc(SCC(=O)N2CCc3cc(OC)c(OC)cc3C2)c(C#N)cc1C,-17.8%
Cc1cc(NC(=O)CCC(=O)N(CCC(C)C)CC(=O)NCC2CCCO2)no1 (stereo unspecified),23.8%
N#Cc1c(Cn2cncn2)nc(=O)n(-c2ccccc2)c1N,12.8%
C=CCn1c(SCc2ccc(OC)cc2)nnc1-c1cccnc1,-9.3%
CC(=O)Nc1ccc(NC(=O)C(C)OC(=O)C(C)SCC(=O)Nc2ccc(C)cc2)cc1 (stereo unspecified),-12.4%
CC(/C=N/NC(=O)c1ccc(CN2c3cccc4cccc(c34)S2(=O)=O)cc1)c1ccccc1 (stereo unspecified),-14.8%
CCCCSc1nnc2c(n1)OC(c1ccc(C)s1)Nc1ccccc1-2 (stereo unspecified),-4.0%
CCc1ccc(NC(=O)c2oc3c(c2C)-c2[nH]ncc2CC3)cc1,-4.7%
c1ccc(SCCN2CCN(c3ccccc3)CC2)cc1,8.3%
O=C(Nc1cccc2ccccc12)c1ccc([N+](=O)[O-])o1,-9.3%
COc1ccc(NC(=O)C(CC(C)C)NC(=O)C2CCCCC2)cc1 (stereo unspecified),6.4%
Cc1[nH]c(=O)[nH]c(=O)c1S(=O)(=O)N1CCN(c2ccccc2)CC1,8.8%
COc1ccccc1NC(=O)C(Cc1ccc(Cl)cc1)c1nn[nH]n1 (stereo unspecified),-7.7%
O=C(Nc1ccc(N2CCN(C(=O)c3ccco3)CC2)cc1)c1cccnc1Cl,-9.6%
CN1CCN(C(=O)/C(=C/c2cccnc2)NC(=O)c2cccc(Br)c2)CC1,-16.5%
CC(NC(=O)c1ccc(N2CCNCC2)c([N+](=O)[O-])c1)C12CC3CC(CC(C3)C1)C2 (stereo unspecified),-8.7%
Nc1c(C(=O)NCCN2CCOCC2)c2nc3ccccc3nc2n1-c1ccccc1,-5.2%
O=S(=O)(NCCc1ccccc1)c1ccc(S(=O)(=O)N2CCCCC2)cc1,-4.3%
O=C(Cc1cccs1)NNC(=S)NCc1ccc(Cl)cc1,29.7%
CCOC(=O)C1CCN(c2ncnc3c2c(-c2ccccc2)cn3-c2ccccc2)CC1,25.9%
COc1ccc(C2c3c(ncn(CCCO)c3=N)Oc3ccc4ccccc4c32)cc1OC (stereo unspecified),15.8%
O=C(CSc1nc(C2CC2)nc2sc3c(c12)CCCC3)NCc1ccco1,1.6%
Clc1ccc(-c2nc(Cc3ccccc3)no2)cc1,2.5%
O=C(Nc1ccc2c(c1)OCCO2)c1ccc(Cl)c(Cl)c1,3.4%
CC(C)CN1C(=O)C(=O)N(CC(=O)N2c3ccccc3NC(=O)CC2C)C1=O (stereo unspecified),-6.3%
COc1ccc(-c2oc(NC(=O)c3ccc(C)cc3)c(C#N)c2-c2ccc(OC)cc2)cc1,8.9%
O=C(Cn1c(NCCO)nc2ccccc21)c1cccs1,2.9%
Cc1nc2ccccn2c1C(=O)N/N=C/c1ccc([N+](=O)[O-])cc1,-8.3%
CCC(C(=O)Nc1ccccc1F)n1nc(C)c2c(C)n(-c3ccccc3)nc2c1=O (stereo unspecified),3.3%
CCO[C@@H]1OC(C(=O)O)=C[C@H](c2ccc3c(c2)OCO3)[C@H]1CCCO,-23.4%
Cc1cc(C)c(C#N)c(Nc2cccc(C)c2C)n1,-18.7%
CCCCNC(=O)CSc1nc2cc(OC)c(OC)cc2c(=O)n1Cc1ccc(OC)cc1,-10.1%
O=C(Nc1ccc(N2CCN(C(=O)c3ccccc3F)CC2)cc1)c1ncn[nH]1,6.5%
COC(=O)c1c(O)cc(=O)n2c1CCCCC2,5.7%
Cc1ccccc1C(=O)OCCCN=C1NS(=O)(=O)c2ccccc21,6.6%
N#Cc1c(NC(=S)NC(=O)c2ccccc2)sc2c1CCCCC2,?
COc1ccc(NC(=O)CCS(=O)(=O)c2ccc3c(c2)oc(=O)n3C)cc1,-4.3%
Oc1ccccc1-c1nc(-c2cccs2)c(-c2cccs2)[nH]1,-10.3%
O=C(Nc1ccccc1C(F)(F)F)c1cc(-c2ccccc2O)on1,14.2%
CC(C)(O)C#Cc1ccc(CN2CCC(CO)(CCc3ccccc3)CC2)cc1,7.2%
O=C(Cn1c2c(sc1=O)C1c3ccccc3OCC1CS2)Nc1ccc(Cl)cc1 (stereo unspecified),-7.5%
CN1CCN(CC(=O)n2c3c(c4ccccc42)CCCC3)CC1,7.6%
Cc1noc(C)c1S(=O)(=O)Nc1ccccc1Oc1ccccc1,-4.3%
O=C(NC(=S)Nc1ccc(N2CCOCC2)cc1)c1cccc(Cl)c1,-24.7%
Cc1nnc(SCC(=O)Nc2ccc(Oc3ccccc3)cc2)n1N,-1.1%
# Further entries.
SMILES,VDR inh
Cc1ccc(CN2CCN(Cc3cnc(N4CCOCC4)s3)CC2CCO)cc1 (stereo unspecified),-4.0%
COc1cccc(NC(=O)COC(=O)CCSc2ccccc2)c1,-2.6%
COCCn1c(=O)c(-c2ccc(Cl)cc2)nc2cnc(Nc3ccccc3)nc21,10.1%
CCOC(=O)CC1COCCN1C(=O)c1cc(COc2ccc(F)c(F)c2)on1 (stereo unspecified),-14.6%
Cn1cc(-c2ccccc2C(=O)O)c(=O)c2cc(Cl)ccc21,-4.3%
O=C(NS(=O)(=O)Nc1ccccn1)c1c[nH]c2ccccc12,-2.3%
CC(=O)c1ccc(CC2SC(N)=NC2=O)cc1 (stereo unspecified),-10.5%
NS(=O)(=O)c1ccc(CCNC(=O)c2cccc(S(=O)(=O)N3CCCC3)c2)cc1,-6.9%
Cc1c(C(=O)O)oc2c1/C(=N\O)CCC2,-5.5%
CC(=O)C[C@@H](O)CC(=O)[C@H]1OC(=O)CCCCCCCCc2ccccc21,-16.8%
COc1ccc(CNC(=O)Cn2ncc3c(=O)oc4ccccc4c32)c(OC)c1,-0.5%
Cc1cccc(N(C)C(=O)c2cnn(-c3ccccc3)c2C)c1,-11.6%
Cc1cccc(NC(NC(=O)c2ccccc2[N+](=O)[O-])C(Cl)(Cl)Cl)c1 (stereo unspecified),-9.9%
Cc1cnn(C(=O)c2ccccc2Br)c1,-15.6%
O=C(Nc1ccccc1O)c1cc2cc(Br)ccc2oc1=O,-10.1%
CC1CC[C@]2(CO)CC[C@]3(C)C(=CCC4[C@@]5(C)CCC(O)C(C)(C)C5CC[C@@]43C)C2C1C (stereo partly specified),-3.0%
CC(=O)Nc1cccc(/C(C)=N/NC(=O)c2c(-c3ccccc3Cl)noc2C)c1,-18.4%
Cc1sc(Nc2ccc([N+](=O)[O-])cc2)nc1-c1c(C)n(C)n(-c2ccccc2)c1=O,-6.6%
CC1=C(C(=O)Nc2ccccc2)C(c2ccncc2)C(C#N)=C(SCC(=O)Nc2ccccc2)N1 (stereo unspecified),2.0%
O=C(Cc1ccc(Cl)cc1Cl)Nc1cccc(S(=O)(=O)Nc2ccccc2F)c1,?
COc1ccc(OC)c(C(C)NC=O)c1 (stereo unspecified),-7.0%
CC(C)CN1CCC(CN(C)Cc2nc(-c3cnccn3)no2)CC1,4.3%
O=C(Nc1ccccc1Cl)NC1(C(=O)N2CCCCC2)CCCCC1,16.1%
N#Cc1ccc(CN2CCCC3(CCN(C(=O)c4cc(C(F)(F)F)cc(C(F)(F)F)c4)CC3)C2)cc1,-8.9%
Cn1c(=O)c2c(n(Cc3ccccc3)c1=O)NC(=O)C2CC(=O)NCc1cccc(Cl)c1 (stereo unspecified),9.6%
CCOc1ccc(NC(=O)COC(=O)C2CCC(=O)N2)c([N+](=O)[O-])c1 (stereo unspecified),-20.2%
COc1cccc(C(=O)Nc2ccc(S(=O)(=O)N3CCN(C)CC3)cc2)c1,2.7%
CCOc1ccc2nc(SCc3ccc(F)cc3)sc2c1,5.4%
COCCn1c(C)cc(C(=O)CSc2n[nH]c(N)n2)c1C,-4.3%
CCOc1ccc(NC(=O)CN(c2ccc(Cl)cc2C)S(=O)(=O)c2ccccc2)cc1,13.9%
Cc1ccc(-n2ncc(C(=O)NCCN3CCc4ccccc4C3)c2C2CCN(C(=O)OC(C)(C)C)CC2)c(C)c1,-3.1%
CCc1ccccc1NC(=S)NCc1cccn1C,-3.9%
CCOC(=O)c1c(NS(=O)(=O)c2ccc(Br)cc2)sc2c1CCC2,-27.1%
CCOC(=O)c1[nH]c2ccccc2c1NC(=O)c1ccc(S(=O)(=O)N2CCCC2)cc1,-0.9%
COc1ccc(C(C)=O)cc1COC(=O)c1ccc(S(=O)(=O)N(C)C)cc1,-8.0%
CCOC(=O)c1cc(-c2ccccc2C)n(CC2CC(c3ccc(OC)cc3)=NO2)n1 (stereo unspecified),-0.3%

# Two records drawn at random from the list so far, as already listed:
SMILES,VDR inh
CCOc1ccc(NC(=O)COC(=O)C2CCC(=O)N2)c([N+](=O)[O-])c1 (stereo unspecified),-20.2%
CCOC(=O)c1c(NS(=O)(=O)c2ccc(Br)cc2)sc2c1CCC2,-27.1%

# The listing continues.
SMILES,VDR inh
COC(=O)c1ccc(OCCOc2ccccc2)cc1,-5.8%
COc1ccc(N2CCN(C3CCCN(Cc4cccc(C(C)=O)c4)C3)CC2)cc1 (stereo unspecified),-28.8%
CC(=O)c1ccc(N2CCN(C(=O)C3(S(=O)(=O)c4ccc(Cl)cc4)CC3)CC2)cc1,6.9%
O=C(/C=C/c1ccccc1[N+](=O)[O-])N1CCOCC1,-20.9%
O=C(O)Cc1ccc(NC(=O)c2ccc(NC(=O)C3CC3)cc2)cc1,10.2%
Cc1ccc(NC(=O)COc2ccc3c(c2)OCO3)c(C)c1,0.4%

# Assay outcomes (PubChem)
